# Screens: PubChem, several laboratories
# RN4220 kill: S. aureus RN4220 growth inhibition. OD600, 16 h. inhibition, % (concentration not given with the values). actives 0.33% (n = 330,000). AID 1259311;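 active = z-score of -3 or lower and OD600 up to 0.18 on both plates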;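 note: plate controls were untreated cells for no effect and reference antibiotic for full effect; stock transfer was 100 nL into about 80 µL; one replicate is shown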
# PrP UTR inh: inhibition of PrP 5' UTR reporter expression | cell-based PrP 5' UTR mRNA reporter, plate reader | inhibition, % (concentration not given with the values) | actives 0.35% (n = 340,000) | AID 488862;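 active = every replicate at 50% or more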;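 note: 0 = median of the neutral control wells; tested in H4 reporter cells; numbers are from one replicate; inactives centre near -14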
# Bead autofluor: counter-screen for toxin protease inhibitors: compound fluorescence | compound autofluorescence counterscreen, microsphere flow cytometry; hits give high values | fluorescence intensity (concentration not given with the values) | actives 3.1% (n = 360,000) | AID 624483;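 active = at least 3 SD above the mean of all compounds, about 16000 in these data; inconclusive = too few beads counted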;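 note: 100 nL of 1 mM stock went into each well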
# Sa ugtP lethal: kills S. aureus RN4220 lacking UgtP; S. aureus RN4220 ugtP deletion, OD600 growth, 16 h; some inactives read as strong as hits; actives 0.54% (n = 330,000); growth inhibition, % (no concentration beside the values);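 active = z-score under -3 and OD600 up to 0.15 on both plates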;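 note: plate controls were untreated wells for no effect and antibiotic for full effect; wells of about 80 µL received 100 nL stock; the first replicate is given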
# BJeLR lethal: kills HRASV12-expressing BJeLR cells. inhibition, % (no concentration beside the values). BJeLR (HRASV12) viability, CellTiter-Glo ATP luminescence, 48 h; reference of the scale not given here. actives 0.17% (n = 300,000);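 active = replicate mean above 50%; inconclusive = above 50% but judged a plate artefact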;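 note: 50 nL library stock added to about 25 µL; numbers are from one replicate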
# Mtb hypoxia inh: reduces hypoxia-regulated biosensor signal in M. tuberculosis | actives 0.1% (n = 300,000) | M. tuberculosis hypoxia-regulated fluorescent reporter, fluorescence | fluorescence inhibition, % (test concentration not listed) | AID 1159583;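 active = 35 to 45% if threefold the growth effect, above 45% if 1.5-fold the growth effect; inactive = the rest, general growth blockers included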;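 note: wells of about 50 µL received 100 nL stock; 0% = vehicle wells and 100% = reference inhibitor wells; whole bacteria with a GFP reporter of the hypoxia response; strong numbers were not always called active; many hits fall short of the cut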
# Mtb hypoxia inh growth: also measured in Mtb hypoxia inh; calls as there; growth inhibition, %; measured here: M. tuberculosis growth (absorbance);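 0% = vehicle and 100% = reference antibiotic; read after six days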
# Active calls of the source: *; ? = inconclusive; . = not tested or not shown.
(1) CC(C)[C@H](NS(=O)(=O)c1ccccc1)C(=O)OCC(=O)NC(=O)NC1CCCCC1
(2) CCOc1ccc(NC(=O)c2ccccc2OC)cc1
(3) Cc1ccc(NC(=O)C2CCN(S(=O)(=O)c3c(C)n[nH]c3C)CC2)nc1
(4) CCCOC(=O)Nc1cc(OC)ccc1[N+](=O)[O-]
(5) CC(C)(C)OC(=O)N1CCC[C@H]1C(=O)OCC(=O)Nc1cc(S(C)(=O)=O)ccc1Cl
(6) CC1CC(C(F)(F)F)n2ncnc2N1 (centres undefined)
(7) COc1ccc(Cl)cc1NC(=O)c1noc(C)c1[N+](=O)[O-]
(8) COc1ccccc1Oc1ccc(-c2cnc3ccccc3n2)cc1[N+](=O)[O-]
(9) O=C1NC(=O)N(Cc2ccccc2F)C1=O
(10) Cc1cc(N2CCOCC2)n2nc(C)c(-c3ccccc3)c2n1

entry no. | 1 | 2 | 3 | 4 | 5 | 6 | 7 | 8 | 9 | 10
RN4220 kill | 5.2 | 4.9 | -1.6 | 11 | 1.2 | -9.2 | 27 | 7.5 | 3.6 | 3.5
PrP UTR inh | -9 | -34 | 2 | -10 | -24 | -11 | -2 | -43 | -14 | -6
Bead autofluor | 3530 | 3256 | 2794 | 4718 | 3849 | 2839 | 4975 | 4482 | 3666 | 3639
Sa ugtP lethal | 4 | 9 | 10 | 0 | 0 | -9 | 11 | 3 | 10 | 3
BJeLR lethal | . | -12 | 5 | -2 | . | -6 | -3 | 1 | 3 | .
Mtb hypoxia inh | 12 | 5 | . | . | -1 | 3 | 9 | 12 | 1 | .
Mtb hypoxia inh growth | 12 | 5 | . | . | -1 | 1 | 12 | 6 | 0 | .

(11) Cc1ccc(S(=O)(=O)NNC(=O)c2cccnc2)cc1
(12) O=C(CSc1ccc(-c2ccccn2)nn1)N1CCCc2ccccc21
(13) Cc1ccsc1C1Nc2ccc3ncccc3c2C2=C1C(=O)CCC2 (centres undefined)
(14) CC(=NNc1cccc(C(=O)O)c1)c1ccc2c(c1)Nc1ccccc1S2
(15) COCCOC(=O)c1c(C)n(C)c2ccc(OC(=O)N(C)C)cc12
(16) O=C(COC(=O)CSc1ccc(F)cc1)NCCCc1ccccc1
(17) Cc1ccc(NCc2nnc(SCC(=O)N3CCCc4ccccc43)o2)c(C)c1
(18) Cc1c(NC(=O)CN2C(=O)C(=O)c3ccccc32)c(=O)n(-c2ccccc2)n1C
(19) C=CCn1c(SCC(=O)Nc2ccc(N3CCOCC3)cc2)nnc1-c1ccncc1
(20) O=c1[nH]c2cc3c(cc2cc1CN(CC1CCCO1)S(=O)(=O)c1ccccc1)OCCO3 (centres undefined)

entry no. | 11 | 12 | 13 | 14 | 15 | 16 | 17 | 18 | 19 | 20
RN4220 kill | 3.0 | 9.7 | 2.8 | 7.5 | 2.9 | 2.1 | 7.3 | 7.1 | 4.5 | 6.0
PrP UTR inh | -31 | 42 | -23 | . | -16 | -19 | -7 | -24 | -18 | -12
Bead autofluor | 2506 | 3201 | 20032* | . | 22829* | 4656 | 6530 | 3145 | 6523 | 8688
Sa ugtP lethal | 5 | 3 | -14 | 0 | -2 | 3 | 2 | 15 | 1 | -2
BJeLR lethal | -5 | 4 | -11 | . | -8 | 0 | -6 | -11 | -10 | 7
Mtb hypoxia inh | 0 | 12 | -6 | 13 | -2 | 1 | 8 | 4 | -15 | 6
Mtb hypoxia inh growth | 2 | 4 | 4 | 6 | 14 | 4 | 0 | 14 | 2 | 6

# 2 records picked at random from those above, as already listed:
(12) O=C(CSc1ccc(-c2ccccn2)nn1)N1CCCc2ccccc21
(18) Cc1c(NC(=O)CN2C(=O)C(=O)c3ccccc32)c(=O)n(-c2ccccc2)n1C

entry no. | 12 | 18
RN4220 kill | 9.7 | 7.1
PrP UTR inh | 42 | -24
Bead autofluor | 3201 | 3145
Sa ugtP lethal | 3 | 15
BJeLR lethal | 4 | -11
Mtb hypoxia inh | 12 | 4
Mtb hypoxia inh growth | 4 | 14

# Reprinted, entries 11–12
(11) Cc1ccc(S(=O)(=O)NNC(=O)c2cccnc2)cc1
(12) O=C(CSc1ccc(-c2ccccn2)nn1)N1CCCc2ccccc21

entry no. | 11 | 12
RN4220 kill | 3.0 | 9.7
PrP UTR inh | -31 | 42
Bead autofluor | 2506 | 3201
Sa ugtP lethal | 5 | 3
BJeLR lethal | -5 | 4
Mtb hypoxia inh | 0 | 12
Mtb hypoxia inh growth | 2 | 4

# Copied from the list.
# Cc1ccsc1C1Nc2ccc3ncccc3c2C2=C1C(=O)CCC2 (centres undefined) – Mtb hypoxia inh growth: 4
# O=c1[nH]c2cc3c(cc2cc1CN(CC1CCCO1)S(=O)(=O)c1ccccc1)OCCO3 (centres undefined) – Mtb hypoxia inh: 6
# O=C(COC(=O)CSc1ccc(F)cc1)NCCCc1ccccc1 – Mtb hypoxia inh: 1
# COCCOC(=O)c1c(C)n(C)c2ccc(OC(=O)N(C)C)cc12 – Mtb hypoxia inh growth: 14

# Later entries.
(21) CCOC(=O)C1C(=O)NC(N2CCCCC2)=NC1c1ccccc1 (centres undefined)
(22) O=C(NCC(=O)N1CCCC1)c1ccc(Cl)cc1
(23) CC(C)Oc1cccc(C(=O)C2CCCN(C3CCOCC3)C2)c1 (centres undefined)
(24) CNC1=CC(=O)CC(c2ccccc2)C1 (centres undefined)
(25) O=C(Nc1c[nH]c(=O)[nH]c1=O)c1ccccc1Br
(26) COc1nccnc1NS(=O)(=O)c1ccc(NC(=S)NC(=O)c2ccc(F)cc2)cc1
(27) CCOC(=O)Cn1cnc2c(cnn2-c2ccc(OC)cc2)c1=O
(28) Cc1ccc(-c2nc(NC(=O)c3ccc(S(=O)(=O)N(CCC#N)CCC#N)cc3)sc2-c2ccccc2)cc1
(29) CC1CCC(=C(C#N)C(=O)Nc2cccc(Cl)c2)CC1 (centres undefined)
(30) Cc1ccc(-c2nnn(CC(=O)N(c3cccc(F)c3)C(C(=O)NC(C)(C)C)c3ccco3)n2)o1 (centres undefined)

entry no. | 21 | 22 | 23 | 24 | 25 | 26 | 27 | 28 | 29 | 30
RN4220 kill | 2.0 | 5.2 | 0.9 | 7.6 | -0.9 | 3.6 | 5.1 | 0.9 | 2.5 | 5.5
PrP UTR inh | -11 | -5 | -1 | -12 | -8 | -9 | -26 | -10 | -16 | 6
Bead autofluor | 22677* | 2980 | 4562 | 3167 | 4565 | 9159 | 3464 | 7801 | 13277 | 4587
Sa ugtP lethal | -3 | 5 | -3 | 7 | 5 | 76 | 4 | -2 | -10 | -1
BJeLR lethal | 1 | 23 | -7 | -2 | 3 | 6 | 23 | 3 | -6 | -4
Mtb hypoxia inh | -1 | -2 | -3 | 9 | 1 | 12 | -2 | 8 | 6 | 5
Mtb hypoxia inh growth | 9 | 0 | 16 | -1 | -7 | 9 | 12 | 4 | 7 | -2

# Part of the list above in order of molecular weight, highest first.
(30) Cc1ccc(-c2nnn(CC(=O)N(c3cccc(F)c3)C(C(=O)NC(C)(C)C)c3ccco3)n2)o1 (centres undefined)
(27) CCOC(=O)Cn1cnc2c(cnn2-c2ccc(OC)cc2)c1=O
(25) O=C(Nc1c[nH]c(=O)[nH]c1=O)c1ccccc1Br
(29) CC1CCC(=C(C#N)C(=O)Nc2cccc(Cl)c2)CC1 (centres undefined)

entry no. | 30 | 27 | 25 | 29
RN4220 kill | 5.5 | 5.1 | -0.9 | 2.5
PrP UTR inh | 6 | -26 | -8 | -16
Bead autofluor | 4587 | 3464 | 4565 | 13277
Sa ugtP lethal | -1 | 4 | 5 | -10
BJeLR lethal | -4 | 23 | 3 | -6
Mtb hypoxia inh | 5 | -2 | 1 | 6
Mtb hypoxia inh growth | -2 | 12 | -7 | 7

# (continued)
(31) C=CCNS(=O)(=O)CC12CCC(CC1=O)C2(C)C (centres undefined)
(32) CN1CCN(c2ccc(Cl)cc2NC(=O)C2COc3ccccc3O2)CC1 (centres undefined)
(33) CCCn1c(C2CCCN2c2nc(-c3cccc(Br)c3)cs2)nc2cc(Cl)c(Cl)cc21 (centres undefined)
(34) Cc1cccc(NC(=O)CSCC(=O)Nc2cc(S(=O)(=O)N3CCOCC3)ccc2OC(C)C)c1

entry no. | 31 | 32 | 33 | 34
RN4220 kill | 1.0 | -0.5 | 12 | 0.9
PrP UTR inh | -22 | -14 | -19 | 1
Bead autofluor | 2740 | 8213 | 3451 | ?
Sa ugtP lethal | 0 | -9 | -6 | 2
BJeLR lethal | 3 | 2 | 3 | -1
Mtb hypoxia inh | . | 7 | -8 | -10
Mtb hypoxia inh growth | . | 6 | 9 | -3
